Rango release inh = qHTS Assay for Inhibitors of RanGTP induced Rango (Ran-regulated importin-beta cargo) - Importin beta complex dissociation; Snurportin-1 (Homo sapiens) + GTP-binding nuclear protein Ran (Homo sapiens) + Importin …; Biochemical FRET Rango-importin beta, RanGTP-induced dissociation; Potency, µM (top dose mostly 46.1 µM), for the others: at the top dose activity change, negative = inhibition; actives 0.071% (n = 340,000); AID 540253, 2011; active means falling FRET ratio curve, often poorly fitted, with flat reads before Ran was added; inconclusive means other falling curves, or compound fluorescence or quenching; inactive means flat or rising ratio curve;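 also: potency is read from the fitted curve at half-maximal effect; % of control where 0% means no effect; nearly all actives have a fitted effect of over 45% in size; -100% = wells without RanGTP and RCC1; the record marks most hits as doubtful in a second field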
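Two FRET readings bracket the reaction: one 5 min after compound meets Rango–importin beta, another 45 min after RanGTP-RCC1 (0.6 uM Ran, 0.2 uM RCC1, 2 mM GTP) is added. Only the second defines inhibition.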
GLA inh pH 4.5 = qHTS Assay for Inhibitors of Human alpha-Galactosidase at pH 4.5; AID 1467, 2008; activity change, negative = inhibition, % at 105 µM; purified enzyme, 4-MU-alpha-Gal fluorescence, pH 4.5; Alpha-galactosidase A (Homo sapiens), P06280; 230,000 tested, under 10 active; inconclusive = small, poorly fitted or top-dose-only inhibition, or a rising curve; inactive = flat fitted curve, though single readings scatter; no compound was filed as active;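 also: 0% = full activity with enzyme and -100% = basal without enzyme; dose as in the result columns while the protocol names 77 µM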
miR-21 FLuc = qHTS Assay for Modulators of miRNAs and/orActivators of miR-21; HeLa miR-21 FLuc reporter, luciferase, 48 h; Potency, µM (top dose mostly 38.3 µM), without a hit: at the highest dose reporter change, positive = more light; 340,000 tested, under 10 active; active = well fitted rising curve with a large enough effect; inconclusive = small, poorly fitted or top-dose-only effect; inactive = no such curve, though single readings can be large or run the other way;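 also: % of control where 0% means no effect; miR-21 action dims this reporter so a rising signal means less miR-21 action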
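HeLa cells endogenously expressing miR-21, stably carrying CMV-driven firefly luciferase with a downstream miR-21 binding site, 2000 cells/well. Titrations up to approximately 40 uM, 48 hours; luciferase luminescence read.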
Rango complex inh = qHTS Assay for Inhibitors of Rango (Ran-regulated importin-beta cargo) - Importin beta complex formation | Rango CFP/YFP FRET sensor + importin beta, 45 min | Potency, µM (series often up to 92.2 µM), without a hit: at the highest dose inhibition of complex formation | actives 0.031% (n = 340,000) | AID 540263, 2011; active = rising FRET ratio curve, often small or poorly fitted; inconclusive = mostly compound fluorescence or quenching in the first reads; inactive = flat curves in all reads;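 also: potency is read from the fitted curve at half-maximal effect; 0% = DMSO wells and 100% = buffer wells lacking importin beta; nearly all actives have a fitted effect of over 15% in size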
Target sequence (Q14974 whole entry, looked up): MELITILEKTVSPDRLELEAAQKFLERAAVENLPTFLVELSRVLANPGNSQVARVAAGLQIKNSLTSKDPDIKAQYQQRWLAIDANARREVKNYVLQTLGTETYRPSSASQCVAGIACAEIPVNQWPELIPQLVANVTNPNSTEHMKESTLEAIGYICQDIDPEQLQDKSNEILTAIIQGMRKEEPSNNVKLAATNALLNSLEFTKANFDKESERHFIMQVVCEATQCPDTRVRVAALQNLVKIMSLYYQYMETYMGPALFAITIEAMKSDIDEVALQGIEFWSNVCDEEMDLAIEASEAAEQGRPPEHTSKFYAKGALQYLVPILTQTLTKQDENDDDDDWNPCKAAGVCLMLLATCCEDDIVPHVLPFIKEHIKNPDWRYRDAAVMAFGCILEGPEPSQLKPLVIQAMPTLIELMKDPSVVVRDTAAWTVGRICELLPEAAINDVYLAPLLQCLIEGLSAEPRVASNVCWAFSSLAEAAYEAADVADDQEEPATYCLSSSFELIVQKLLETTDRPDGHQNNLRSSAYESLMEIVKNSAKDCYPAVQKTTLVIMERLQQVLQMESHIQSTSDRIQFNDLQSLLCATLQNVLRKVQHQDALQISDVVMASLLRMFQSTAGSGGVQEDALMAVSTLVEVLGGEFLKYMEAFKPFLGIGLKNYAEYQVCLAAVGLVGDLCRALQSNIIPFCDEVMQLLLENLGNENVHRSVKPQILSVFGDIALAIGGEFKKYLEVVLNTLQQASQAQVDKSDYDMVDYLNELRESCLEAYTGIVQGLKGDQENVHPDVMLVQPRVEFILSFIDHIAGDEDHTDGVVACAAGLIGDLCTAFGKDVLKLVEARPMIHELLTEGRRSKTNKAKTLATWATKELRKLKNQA
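FRET biosensor (snurportin 1 IBB flanked by EYFP and cerulean), 50 nM, with compound 5 min, then 0.125 microM importin beta in PBS, 1 mM DTT, 0.02% Tween-20, 0.1% BSA. CFP/YFP ratio read after 45 min at room temperature; pre-read flags interference.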
Starred values were filed as active, the others as inactive; & = joins results of further samples. The list is partial; count on the stated rates, not on these rows.

How did COc1ccc(Cc2nnc(SCC(=O)Nc3cc(Cl)ccc3OC)[nH]c2=O)cc1 do in these assays?
Rango release inh: 12%; Rango complex inh: 2.5%

Results for O=c1c2sc3nc(N4CCOCC4)c4c(c3c2nnn1Cc1ccccc1)CCCC4 ?
Rango release inh: -7%; GLA inh pH 4.5: -8; miR-21 FLuc: -11%; Rango complex inh: 0.0%

How did O=C(c1ccc(CS(=O)(=O)c2ccccc2)o1)N1CCN(c2ccccc2)CC1 do in these assays?
Rango release inh: -10%; miR-21 FLuc: 2%; Rango complex inh: -2.3%

What do the screens show for `Cc1ccc(N2CCN(CCCN3C(=O)C4CCCN4C3=O)CC2)cc1` (stereo not drawn)?
Rango release inh: -14%; GLA inh pH 4.5: 8; miR-21 FLuc: 2%; Rango complex inh: 0.4%

How did Cc1c(CC(=O)NCC(=O)O)c(=O)oc2cc3oc4c(c3cc12)CCCC4 do in these assays?
Rango release inh: -8%; miR-21 FLuc: -3%; Rango complex inh: -0.8%

What do the screens show for `O=C(NCc1ccccn1)c1c(O)c2cccc3c2n(c1=O)CC3`?
Rango release inh: -3%; GLA inh pH 4.5: 5; miR-21 FLuc: -7%; Rango complex inh: -1.9%

Results for CCOc1ccc(N(C(=O)c2cnccn2)C(C(=O)NC2CCCCC2)c2ccc(O)cc2)cc1 (stereo not drawn) ?
Rango release inh: -5%; GLA inh pH 4.5: -5; miR-21 FLuc: -17%; Rango complex inh: -2.6%

How did CCOC(=O)C1CCN(C(=O)C2CCN(S(=O)(=O)c3ccc4ccccc4c3)CC2)CC1 do in these assays?
Rango release inh: -1%; miR-21 FLuc: 2%; Rango complex inh: -1.1%

Results for CCCn1c(SCC(=O)Nc2cccc(F)c2)nc(O)cc1=O ?
Rango release inh: -1%; Rango complex inh: 0.1%

How did Cc1ccc(C(=O)NC(=S)Nc2ccc(S(=O)(=O)N(C)c3ccccc3)cc2)cc1 do in these assays?
Rango release inh: 11%; GLA inh pH 4.5: 0; miR-21 FLuc: -9%; Rango complex inh: -4.2%

What do the screens show for `COc1cccc(NCc2ccc([N+](=O)[O-])s2)c1`?
Rango release inh: 1%; GLA inh pH 4.5: -12; miR-21 FLuc: -3%; Rango complex inh: 4.1%

Results for Cc1cc(Cl)c2oc(C(=O)N(C)C3CCOC3)c(C)c2c1 (stereo not drawn) ?
Rango release inh: 0%; miR-21 FLuc: -119%; Rango complex inh: 2.9%

What do the screens show for `c1cnc(-c2nnc3n2CCCCC3)cn1`?
Rango release inh: -2%; GLA inh pH 4.5: -12; miR-21 FLuc: -1%; Rango complex inh: -1.4%

Results for O=C1CCCc2oc3ccc(NS(=O)(=O)c4cccc5cccnc45)cc3c21 ?
Rango release inh: 0%; GLA inh pH 4.5: -5; miR-21 FLuc: 0%; Rango complex inh: 4.1%

How did O=C1Nc2c(Br)cc(Br)c3cccc1c23 do in these assays?
Rango release inh: inconclusive; GLA inh pH 4.5: -22; miR-21 FLuc: -5%; Rango complex inh: inconclusive

How did COc1ccc(N2CCN(S(=O)(=O)c3ccc(-c4cnc(C5CC5)o4)cc3)CC2)cc1 do in these assays?
Rango release inh: 3%; miR-21 FLuc: 0%&5%; Rango complex inh: -1.3%

Results for OC(COc1ccc(Br)cc1)CN1CCCC1 (stereo not drawn) ?
Rango release inh: 16%; miR-21 FLuc: -3%; Rango complex inh: -2.0%

What do the screens show for `COc1cc(/C=C(\C#N)C(N)=O)ccc1OCc1c(C)no[n+]1[O-]`?
Rango release inh: 8%; GLA inh pH 4.5: -3; miR-21 FLuc: 0%; Rango complex inh: -3.3%

Results for CCOC(=O)[C@H]1[C@H]2COc3ccc(C)cc3[C@@H]2N2C(=O)CN(Cc3ccccc3)C(=O)[C@@]12C ?
Rango release inh: -14%; Rango complex inh: -1.1%

How did COc1ccccc1C(=O)NCCC(=O)N1CCCC(C)C1 (stereo not drawn) do in these assays?
Rango release inh: -8%; miR-21 FLuc: -7%; Rango complex inh: -1.9%

What do the screens show for `COc1cc(/C=N/Nc2nc(N3CCCCC3)nc(N3CCCCC3)n2)ccc1OC(=O)c1ccco1`?
GLA inh pH 4.5: 5; miR-21 FLuc: -1%

What do the screens show for `O=C(O)COCc1nc2ccccc2s1`?
Rango release inh: 1%; GLA inh pH 4.5: 3; miR-21 FLuc: -1%; Rango complex inh: -0.3%

How did O=c1cc(C(F)(F)F)nc(SCc2cccc3ccccc23)[nH]1 do in these assays?
Rango release inh: inconclusive; miR-21 FLuc: -2%; Rango complex inh: inconclusive

How did Cc1nc2c(C(=O)NCCC(C)C)c[nH]n2c(=O)c1Cc1ccccc1F do in these assays?
Rango release inh: -6%; GLA inh pH 4.5: -11; miR-21 FLuc: 8%; Rango complex inh: -3.0%

Results for COc1cc(C#Cc2c(-c3cncn3C)n(C)c3ccc(-c4ccc(OC)c(OC)c4)cc23)cc(OC)c1 ?
Rango release inh: 0%; Rango complex inh: -0.9%

What do the screens show for `O=C(COc1ncnc2c(Cl)cc(Cl)cc12)Nc1cc([N+](=O)[O-])ccc1Cl`?
Rango release inh: -7%; GLA inh pH 4.5: 5; miR-21 FLuc: -8%; Rango complex inh: -0.8%

Results for COc1cc(OC)c(S(=O)(=O)Nc2ccccc2N2CCOCC2)cc1NC(C)=O ?
Rango release inh: 3%; GLA inh pH 4.5: 4; miR-21 FLuc: 5%; Rango complex inh: 0.8%

How did CCOC(=O)CSc1nc(=O)n2cccc(C)c2n1 do in these assays?
Rango release inh: -11%; GLA inh pH 4.5: 1; miR-21 FLuc: -5%; Rango complex inh: 2.6%

Results for COc1ccccc1C(=O)NC(CCSC)C(=O)NCC(c1cccs1)N1CCOCC1 (stereo not drawn) ?
Rango release inh: -14%; Rango complex inh: inconclusive

How did CCCCNC(=O)C1CCN(S(=O)(=O)c2ccc3c(c2)CC(C)N3C(=O)C2CC2)CC1 (stereo not drawn) do in these assays?
Rango release inh: 16%; miR-21 FLuc: 7%; Rango complex inh: -4.2%

How did CC(C)NC(=O)c1ccc2c(=O)n(Cc3ccco3)c(=S)[nH]c2c1 do in these assays?
Rango release inh: -2%; GLA inh pH 4.5: -19; miR-21 FLuc: 3%; Rango complex inh: 1.1%

How did COc1ccccc1C(=O)NCCC(=O)NCC1CCCO1 (stereo not drawn) do in these assays?
Rango release inh: -12%; Rango complex inh: -0.2%

How did O=C(NCCCN1CCN(Cc2ccccc2)CC1)C1CCN(S(=O)(=O)N2CCCC2)CC1 do in these assays?
Rango release inh: -2%; GLA inh pH 4.5: -4; miR-21 FLuc: -1%; Rango complex inh: -2.8%

Results for O=C(CSc1nnc(-c2ccc(O)cc2)n1Cc1ccco1)N1CCc2ccccc2C1 ?
Rango release inh: -5%; GLA inh pH 4.5: 10; miR-21 FLuc: -2%; Rango complex inh: 3.6%

Results for Nn1c(SCC(=O)NCCc2ccc(S(N)(=O)=O)cc2)nnc1C1CCCCC1 ?
Rango release inh: -8%; Rango complex inh: -1.2%

What do the screens show for `CC(NC(=O)c1cccc(OC2CCN(C3CCN(C)CC3)CC2)c1)c1ccccc1` (stereo not drawn)?
Rango release inh: 33%; miR-21 FLuc: -3%; Rango complex inh: 3.8%

What do the screens show for `Cc1ccccc1OCCCCCCN1CCNCC1`?
Rango release inh: 6%; Rango complex inh: 1.7%

How did CCc1cccc(NS(=O)(=O)c2c(C)nc3scc(C)n3c2=O)c1 do in these assays?
Rango release inh: -18%; miR-21 FLuc: 7%; Rango complex inh: 1.4%

What do the screens show for `CCCNC(=O)CCn1nc(-c2ccc(Cl)cc2)c2ccccc2c1=O`?
Rango release inh: 6%; GLA inh pH 4.5: -1; miR-21 FLuc: -4%; Rango complex inh: -0.1%

How did COc1cccc2c(=O)c(C(=O)NCc3cccs3)c[nH]c12 do in these assays?
Rango release inh: -2%; GLA inh pH 4.5: 4; miR-21 FLuc: -18%; Rango complex inh: 1.5%

What do the screens show for `O=C(O)c1cccc(-c2nc3ccccc3[nH]2)c1`?
Rango release inh: -11%; GLA inh pH 4.5: -1; miR-21 FLuc: -42%; Rango complex inh: -3.6%

How did CC(=O)Nc1ccc(N=NC2C(=O)N(C(N)=S)N=C2C)cc1 (stereo not drawn) do in these assays?
Rango release inh: -2%; miR-21 FLuc: -45%; Rango complex inh: -0.4%

Results for CN(C)S(=O)(=O)c1cccc(-n2sc3ccccc3c2=O)c1 ?
Rango release inh: 9%; GLA inh pH 4.5: 1; miR-21 FLuc: -2%; Rango complex inh: 0.6%

How did CCN1C(=O)[C@H]2[C@H]3CN=C(SCc4ccc(C(=O)OC)cc4)N3[C@@](C)(C(=O)OC)[C@H]2C1=O do in these assays?
Rango release inh: -6%; Rango complex inh: 0.2%

What do the screens show for `CCCCCC(=O)Nc1cccc(C2=NOC3(C2)C[C@H](C(N)=O)N(C(=O)CC#N)C3)c1` (stereo partly drawn)?
GLA inh pH 4.5: 1; miR-21 FLuc: 0%

Next section (four carried over from the part before).
How did CC(=O)Nc1ccc(N=NC2C(=O)N(C(N)=S)N=C2C)cc1 (stereo not drawn) do in these assays?
Rango release inh: -2%; miR-21 FLuc: -45%; Rango complex inh: -0.4%

Results for CN(C)S(=O)(=O)c1cccc(-n2sc3ccccc3c2=O)c1 ?
Rango release inh: 9%; GLA inh pH 4.5: 1; miR-21 FLuc: -2%; Rango complex inh: 0.6%

How did CCN1C(=O)[C@H]2[C@H]3CN=C(SCc4ccc(C(=O)OC)cc4)N3[C@@](C)(C(=O)OC)[C@H]2C1=O do in these assays?
Rango release inh: -6%; Rango complex inh: 0.2%

What do the screens show for `CCCCCC(=O)Nc1cccc(C2=NOC3(C2)C[C@H](C(N)=O)N(C(=O)CC#N)C3)c1` (stereo partly drawn)?
GLA inh pH 4.5: 1; miR-21 FLuc: 0%

How did CC1=C(C#N)S(=O)(=O)C(C#N)C(c2ccccc2)C1 (stereo not drawn) do in these assays?
Rango release inh: inconclusive; GLA inh pH 4.5: 5; miR-21 FLuc: 3%; Rango complex inh: inconclusive

How did CCN(CC)CCCN(C(=O)c1cccc(C)c1)c1nc(-c2ccc(OC)cc2)cs1 do in these assays?
Rango release inh: 5%; miR-21 FLuc: 16%; Rango complex inh: -4.7%

Results for CC12CCC(C(=O)N3CCCCCC3)(OC1=O)C2(C)C (stereo not drawn) ?
Rango release inh: -8%; GLA inh pH 4.5: 6; miR-21 FLuc: -6%; Rango complex inh: -1.9%

How did CCOC(=O)Cc1csc(CC(N)=O)n1 do in these assays?
Rango release inh: -14%; GLA inh pH 4.5: -3; miR-21 FLuc: 1%; Rango complex inh: -0.3%

Results for CCN1CCc2c(sc(NC(=O)c3ccc(S(=O)(=O)N(CC)c4ccccc4)cc3)c2C(N)=O)C1 ?
Rango release inh: inconclusive; miR-21 FLuc: 3%; Rango complex inh: inconclusive

Results for CCOC(CNc1cc(C)nc2c(-c3ccccc3OC)c(C)nn12)OCC ?
Rango release inh: -11%; miR-21 FLuc: 3%; Rango complex inh: 1.1%

Results for N#Cc1c(N2CCN(c3ccc(F)cc3)CC2)nc(N)c2c(N)nc3c(c12)CC(=O)N3C1CC1 ?
Rango release inh: 3%; GLA inh pH 4.5: -3; miR-21 FLuc: -2%; Rango complex inh: inconclusive

Results for Nc1ccc(CCC(=O)N2CCCC2)cc1 ?
Rango release inh: 1%; miR-21 FLuc: -7%; Rango complex inh: -1.3%

What do the screens show for `COc1ccc(-n2cnnc2SCC(=O)Nc2ccc(N3CCOCC3)cc2)cc1`?
Rango release inh: -8%; GLA inh pH 4.5: -16; miR-21 FLuc: 5%; Rango complex inh: 3.7%

How did Cc1ccc(Nc2cnn(C34CC5CC(CC(CC(=O)O)(C5)C3)C4)c(=O)c2Cl)cc1 do in these assays?
Rango release inh: -6%; GLA inh pH 4.5: -6; miR-21 FLuc: -5%; Rango complex inh: 6.9%

How did c1cncc(-c2nnc3sc(-c4ccco4)nn23)c1 do in these assays?
Rango release inh: inconclusive; GLA inh pH 4.5: 8; miR-21 FLuc: -1%; Rango complex inh: 3.4%

High-throughput results from PubChem.
